Vaccinia stage = blocks a specific stage of Vaccinia orthopoxvirus infection; Vaccinia-infected cells, mCherry/Venus stage reporter fluorescence; stronger effect = lower value; some inactives read as strong as hits; activity change (mCherry), % (concentration not given with the values); actives 0.01% (n = 89,000); AID 1053133;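 active means mCherry past -33% and 40 or more points under the early reporter, replicates agreeing; inconclusive means past -33% without that gap or agreement; tested in A549 cells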;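 further: scaled between vehicle wells and reference inhibitor wells; 23 nL library stock went into each well; one replicate is shown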
Vaccinia stage Venus = further read-out of Vaccinia stage, marked with its call; activity change (Venus), %; measured here: Venus reporter, other viral stage;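 negative = less Venus signal; first of two replicates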
An asterisk follows results filed as active; ? = inconclusive; / = not tested or not shown; & = joins results of further samples. Only part of the results is shown; the hit share may differ from the screen's.

SMILES	Vaccinia stage	Vaccinia stage Venus
CNC[C@@H]1OCCCC[C@@H](C)Oc2ccc(NC(=O)NC(C)C)cc2C(=O)N([C@@H](C)CO)C[C@H]1C	14	6
C[C@H]1CN([C@@H](C)CO)C(=O)c2cc(C#CC3(O)CCCC3)cnc2O[C@H]1CN(C)C(=O)CC1CC1	11	11
C[C@@H]1CCCCO[C@H](CN(C)S(C)(=O)=O)[C@@H](C)CN([C@@H](C)CO)C(=O)c2cc(NS(=O)(=O)c3ccccc3)ccc2O1	11	1
CC(=O)N1CC[C@@H]2[C@H]1c1cc(C#Cc3cccnc3)ccc1N[C@@H]2CO	21	20
COc1ccc(S(=O)(=O)N[C@@H]2CC[C@@H](CCNC(=O)CN3CCOCC3)O[C@@H]2CO)cc1	6	10
CC(C)NC(=O)Nc1ccc2c(c1)C(=O)N([C@H](C)CO)C[C@H](C)[C@H](CN(C)CC1CCCCC1)O2	4	5
CC(C)NC(=O)Nc1cccc2c1O[C@H](CN(C)C(=O)NC(C)C)[C@H](C)CN([C@@H](C)CO)C2=O	-1	1
C[C@H](CO)N1C[C@H](C)[C@@H](CN(C)Cc2ccccc2)Oc2ccc(NS(C)(=O)=O)cc2CC1=O	-2	-1
CN(C)CCCNC(=O)C[C@H]1CC[C@H]2[C@@H](COC[C@@H](O)CN2CC2CCCCC2)O1	-11	-10
COC(=O)[C@H]1[C@H](CO)[C@H]2Cn3c(ccc(C4=CCCC4)c3=O)[C@@H]1N2C(=O)CC1CC1	8	2
CC(C)NC(=O)Nc1cccc2c1O[C@@H](CN(C)Cc1ccc3c(c1)OCO3)[C@@H](C)CN([C@@H](C)CO)C2=O	-8	-11
O=C(C[C@@H]1CC[C@H]2[C@@H](COC[C@@H](O)CN2Cc2ccc(F)cc2)O1)N1CCc2ccccc2C1	-20	-12
O=C(Nc1cccc(F)c1)N1CC(=O)N2[C@H](C1)[C@H](c1ccc(-c3cccc(F)c3)cc1)[C@@H]2CO	?	/
C/C=C/c1ccc2c(c1)O[C@H](CN(C)C(=O)Cc1ccncc1)[C@@H](C)CN([C@@H](C)CO)S2(=O)=O	-2	-10
CCCNC(=O)N1[C@H](CO)[C@@H](c2ccccc2)[C@@H]1CNC(C)=O	23	14
O=C(C[C@@H]1C=C[C@H](NC(=O)CN2CCOCC2)[C@@H](CO)O1)NC1CCC1	2	3
C[C@@H]1CN([C@@H](C)CO)C(=O)Cc2cc(NC(=O)NC3CCCCC3)ccc2O[C@H]1CN(C)C(=O)Nc1ccc2c(c1)OCO2	1	8
C[C@@H]1CN([C@@H](C)CO)C(=O)c2c(c3ccccc3n2C)-c2ccccc2CO[C@@H]1CN(C)C(=O)Oc1ccccc1	-24	-13
CC(C)C#Cc1cnc2c(c1)C(=O)N([C@H](C)CO)C[C@@H](C)[C@H](CN(C)C(=O)c1cccnc1)O2	2	0
O=C(Nc1cccc(F)c1)N1C[C@@H]2N[C@H](C1)C2c1ccc(-c2cccnc2)cc1 (some centres undefined)	?	-12
Cc1ccc(S(=O)(=O)N(C)C[C@H]2OCCCC[C@H](C)Oc3ccc(NS(=O)(=O)c4cccs4)cc3C(=O)N([C@@H](C)CO)C[C@H]2C)cc1	-15	-6
COc1cccc(S(=O)(=O)N2C[C@@H](O)COC[C@H]3O[C@@H](CC(=O)Nc4ccccc4)CC[C@@H]32)c1	0	-10
O=C(C[C@H]1C=C[C@@H](NS(=O)(=O)c2ccccc2)[C@H](CO)O1)N1CCC(Cc2ccccc2)CC1	-12	-6
COc1ccccc1C(=O)Nc1ccc2c(c1)OC[C@H](C)NC[C@H](C)[C@@H](OC)CN(C)C2=O	-7	-5
O=C(c1ccccc1)N1CC(=O)N2[C@@H](CO)[C@@H](c3ccc(C#Cc4ccccc4)cc3)[C@@H]2C1	?	/
O=C(NCC[C@H]1CC[C@H](NC(=O)C2CCCC2)[C@@H](CO)O1)c1cc(Cl)cc(Cl)c1	-17	-9
C[C@H]1CN([C@@H](C)CO)C(=O)CCCn2cc(nn2)CO[C@H]1CN(C)S(=O)(=O)c1ccc(Oc2ccccc2)nc1	-15	-15
[N-]=[N+]=NCc1ccccc1C[C@]1(C(=O)NCCN2CCOCC2)COC(c2ccc(OCCCO)cc2)=N1	-18	-14
COc1cccc(NC(=O)N[C@@H]2C=C[C@H](CC(=O)Nc3ccccc3)O[C@H]2CO)c1	6	2
Cc1cccc(S(=O)(=O)N(C)C[C@@H]2OCc3cn(nn3)CCCC(=O)N([C@@H](C)CO)C[C@H]2C)c1	7	7
O=C(CN1CCOCC1)NCC[C@H]1CC[C@H](NC(=O)c2ccccc2F)[C@@H](CO)O1	-2	3
CC(C)(C)c1ccc(N2C(=O)CSC2c2ccccc2)cc1 (centres undefined)	8	15
CN1[C@@H]2Cn3c(cccc3=O)[C@H]1[C@@H](C(=O)NCC1CCCCC1)[C@@H]2CO	10	1
COc1ccc(S(=O)(=O)Nc2ccc3c(c2)C(=O)N([C@@H](C)CO)C[C@H](C)[C@@H](CN(C)C(=O)c2ccncc2)OCCCC[C@@H](C)O3)cc1	19	5
CN1C(=O)c2cc(NC(=O)C3CCC3)ccc2OC[C@H]2O[C@@H](CC(=O)NCCc3ccncc3)CC[C@H]21	24	9
C[C@H]1CCCCO[C@H](CN(C)S(=O)(=O)c2ccc(Cl)cc2)[C@@H](C)CN([C@@H](C)CO)C(=O)c2cc(NS(=O)(=O)c3cn(C)cn3)ccc2O1	8	3
C[C@H](CO)N1C[C@H](C)[C@@H](CN(C)S(=O)(=O)c2ccccc2)OCCCC[C@H](C)Oc2ccc(NC(=O)C3CCCCC3)cc2C1=O	-19	-9
CN(C)Cc1cn(CC[C@@H]2CC[C@@H](NS(=O)(=O)c3ccccc3)[C@@H](CO)O2)nn1	10	1
C[C@H](NC(=O)C[C@@H]1C[C@@H]2c3cc(NC(=O)NC4CCCC4)ccc3O[C@@H]2[C@@H](CO)O1)c1ccccc1	11	17
CNC(=O)C[C@H]1CC[C@@H]2[C@H](COc3ccc(NC(=O)c4cccc(F)c4)cc3C(=O)N2C)O1	-5&5	-5&4
CCC(=O)N1[C@H](CO)[C@H](c2ccccc2)[C@H]1CN(CC)C(=O)c1ccccc1	1	4
N#C[C@@H]1[C@H](c2ccc(C3=CCCC3)cc2)[C@H](CO)N1C(=O)C1CCC1	4	-7
C[C@H]1CN([C@@H](C)CO)C(=O)Cc2cc(NS(C)(=O)=O)ccc2O[C@@H]1CN(C)Cc1ccncc1	14	2
CCC(=O)N1[C@@H](CO)[C@@H](c2ccccc2)C12CN(C(=O)Cc1ccccc1)C2	0	3
C[C@@H]1CCCCO[C@H](CN(C)C(=O)Cc2ccccc2)[C@@H](C)CN([C@H](C)CO)C(=O)c2cc(NC(=O)Nc3ccc(C(F)(F)F)cc3)ccc2O1	1	1
O=C(C[C@H]1C=C[C@@H](NC(=O)c2cccc(F)c2)[C@@H](CO)O1)NCc1ccc(Oc2ccccc2)cc1	?	/
C/C=C/c1ccc([C@@H]2[C@@H](CNC(=O)c3ccncc3)N(C(=O)CC)[C@H]2CO)cc1	0	-3
CO[C@@H]1CN(C)C(=O)c2cc(NS(C)(=O)=O)ccc2OC[C@@H](C)NC[C@H]1C	-1	4
COc1ccc2c3c(n(C)c2c1)[C@H](CO)N(Cc1ccccc1F)CC31CN(C(=O)C2CCOCC2)C1	14	5
Cc1noc(C)c1NC(=O)N(C)C[C@@H]1Oc2c(NS(=O)(=O)c3cn(C)cn3)cccc2C(=O)N([C@@H](C)CO)C[C@H]1C	13	14
CCCNC(=O)C[C@H]1CC[C@@H]2[C@H](COC[C@@H](O)CN2Cc2ccncc2)O1	3	1
Cc1noc(C)c1NC(=O)N(C)C[C@H]1OCCCC[C@@H](C)Oc2ccc(NS(=O)(=O)c3cccs3)cc2C(=O)N([C@@H](C)CO)C[C@H]1C	18	14
C[C@@H]1CN([C@@H](C)CO)C(=O)c2cc(C#CCc3ccccc3)cnc2O[C@@H]1CN(C)CC1CC1	?	/
Cc1noc(C)c1S(=O)(=O)Nc1ccc2c(c1)C(=O)N([C@H](C)CO)C[C@H](C)[C@H](CN(C)S(=O)(=O)c1ccccc1)O2	5	3
C[C@@H]1CN([C@@H](C)CO)S(=O)(=O)c2ccc(C#Cc3ccncc3)cc2O[C@@H]1CN(C)C(=O)C1CCC1	-28	-22
CNC[C@@H]1Oc2c(NS(=O)(=O)c3c(C)noc3C)cccc2C(=O)N([C@@H](C)CO)C[C@@H]1C	6	3
O=C(C[C@H]1C[C@@H]2c3cc(NC(=O)NC4CCCCC4)ccc3O[C@@H]2[C@@H](CO)O1)NCc1cccnc1	12	3
CCC(=O)N[C@H]1CC[C@H](CC(=O)NCCN2CCCCC2)O[C@@H]1CO	0	-3
COC(=O)C[C@H]1CC[C@@H]2[C@@H](COc3ccc(NS(=O)(=O)c4ccc(C)cc4)cc3C(=O)N2C)O1	6	5
C[C@@H]1CN([C@H](C)CO)C(=O)Cc2cc(NS(C)(=O)=O)ccc2O[C@@H]1CN(C)S(=O)(=O)c1ccc(Cl)cc1	16	9

4 of these compounds in a different format:
COc1ccc2c3c(n(C)c2c1)[C@H](CO)N(Cc1ccccc1F)CC31CN(C(=O)C2CCOCC2)C1
  Vaccinia stage: 14; Vaccinia stage Venus: 5
Cc1noc(C)c1NC(=O)N(C)C[C@@H]1Oc2c(NS(=O)(=O)c3cn(C)cn3)cccc2C(=O)N([C@@H](C)CO)C[C@H]1C
  Vaccinia stage: 13; Vaccinia stage Venus: 14
CCCNC(=O)C[C@H]1CC[C@@H]2[C@H](COC[C@@H](O)CN2Cc2ccncc2)O1
  Vaccinia stage: 3; Vaccinia stage Venus: 1
Cc1noc(C)c1NC(=O)N(C)C[C@H]1OCCCC[C@@H](C)Oc2ccc(NS(=O)(=O)c3cccs3)cc2C(=O)N([C@@H](C)CO)C[C@H]1C
  Vaccinia stage: 18; Vaccinia stage Venus: 14

More results follow:
SMILES	Vaccinia stage	Vaccinia stage Venus
C[C@@H]1CN([C@@H](C)CO)C(=O)Cc2cc(NC(=O)Nc3cccc4ccccc34)ccc2O[C@H]1CN(C)Cc1ccc(C(=O)O)cc1	8	12
COc1cccc(C(=O)Nc2ccc3c(c2)OC[C@@H](C)NC[C@H](C)[C@@H](OC)CN(C)C3=O)c1	5	5
O=C1CNC[C@@H]2[C@@H](c3ccc(-c4ccccc4F)cc3)[C@H](CO)N12	3	2
C[C@@H]1CN([C@H](C)CO)C(=O)Cc2cc(NC(=O)c3ccncc3)ccc2O[C@@H]1CN(C)C(=O)Nc1ccc2c(c1)OCO2	4	16
C[C@H]1CN([C@@H](C)CO)C(=O)c2cc(C3=CCCC3)cnc2O[C@@H]1CN(C)S(=O)(=O)c1cn(C)cn1	1	6
COc1ccc(CN(C)C[C@H]2Oc3c(NS(=O)(=O)c4cn(C)cn4)cccc3C(=O)N([C@H](C)CO)C[C@H]2C)cc1	18	10
N#Cc1cccc(-c2ccc([C@H]3[C@H](CO)N4CCCCN(C(=O)Nc5cccc(F)c5)C[C@@H]34)cc2)c1	?	/
CN(C)CCCCCCNC(=O)[C@@H]1C[C@@H]2C(=O)NCC(=O)N2[C@@H]1c1cccc(OCCO)c1	9	10
C[C@@H]1CN([C@H](C)CO)C(=O)c2cc(NC(=O)Nc3ccccc3)ccc2O[C@H]1CN(C)Cc1ccncc1	9	8
CCC(=O)N(C)C[C@H]1Oc2cc(-c3cccc(F)c3)ccc2S(=O)(=O)N([C@@H](C)CO)C[C@@H]1C	-22	-17
COc1ccc(CN(C)C[C@H]2OCc3cnnn3CCCC(=O)N([C@H](C)CO)C[C@H]2C)cc1	0	2
CN1C(=O)c2cc(NC(=O)Nc3cccc(Cl)c3)ccc2OC[C@H]2O[C@@H](CC(=O)NCCc3ccncc3)CC[C@@H]21	2	4
O=C(CCN1CCCCC1)N[C@H]1CC[C@@H](CC(=O)N2CCC(Cc3ccccc3)CC2)O[C@@H]1CO	-8	-5
CCCNC(=O)C[C@@H]1CC[C@@H]2[C@H](COc3ccc(NC(=O)NCCC)cc3C(=O)N2C)O1	1	3
CCC(=O)Nc1ccc2c(c1)C(=O)N(C)C[C@H](OC)[C@H](C)CN(C(=O)c1ccncc1)[C@@H](C)CO2	18	12

Sorted by count of non-hydrogen atoms (rising): 3 of the compounds above
SMILES	Vaccinia stage	Vaccinia stage Venus
CCCNC(=O)C[C@@H]1CC[C@@H]2[C@H](COc3ccc(NC(=O)NCCC)cc3C(=O)N2C)O1	1	3
COc1ccc(CN(C)C[C@H]2OCc3cnnn3CCCC(=O)N([C@H](C)CO)C[C@H]2C)cc1	0	2
C[C@@H]1CN([C@H](C)CO)C(=O)Cc2cc(NC(=O)c3ccncc3)ccc2O[C@@H]1CN(C)C(=O)Nc1ccc2c(c1)OCO2	4	16

Continuation.
SMILES	Vaccinia stage	Vaccinia stage Venus
O=C(Nc1ccccc1)N[C@H]1CC[C@H](CCn2cc(C3(O)CCCC3)nn2)O[C@H]1CO	-14	-6
C[C@H](CO)N1C[C@H](C)[C@@H](CN(C)S(C)(=O)=O)OCCCC[C@H](C)Oc2ccc(NC(=O)c3ccncc3)cc2C1=O	18	6
Cc1noc(C)c1NC(=O)N(C)C[C@@H]1Oc2c(NS(=O)(=O)c3c(C)noc3C)cccc2C(=O)N([C@H](C)CO)C[C@@H]1C	-2	4
Cc1ccc(S(=O)(=O)Nc2ccc3c(c2)C(=O)N([C@H](C)CO)C[C@@H](C)[C@@H](CN(C)C(=O)Nc2ccccc2)OCCCC[C@H](C)O3)cc1	-19	-12
COc1ccc(-c2ccc([C@H]3[C@H]4CN(C(=O)c5ccc6c(c5)OCO6)CCCCN4[C@H]3CO)cc2)cc1	?	/
CC(C)OC(=O)N(C)C[C@H]1OCc2cn(nn2)CCCC(=O)N([C@@H](C)CO)C[C@H]1C	-3	4

Source: PubChem
